Screens as filed in PubChem BioAssay.
TRPV1 PAM: human TRPV1 potentiation; potentiation, % at 8.33 µM; 320,000 compounds, 0.02% hits; Q8NER1; TRPV1-expressing cells, Fluo-8 calcium influx, capsaicin EC20 potentiation; host cell line not named in the record; control for the full effect not named in the record; active means potentiation above 80%; inconclusive means 30% to 80%; inactive means below 30%; further: 0% is about no effect
Target sequence (Q8NER1 whole entry, looked up): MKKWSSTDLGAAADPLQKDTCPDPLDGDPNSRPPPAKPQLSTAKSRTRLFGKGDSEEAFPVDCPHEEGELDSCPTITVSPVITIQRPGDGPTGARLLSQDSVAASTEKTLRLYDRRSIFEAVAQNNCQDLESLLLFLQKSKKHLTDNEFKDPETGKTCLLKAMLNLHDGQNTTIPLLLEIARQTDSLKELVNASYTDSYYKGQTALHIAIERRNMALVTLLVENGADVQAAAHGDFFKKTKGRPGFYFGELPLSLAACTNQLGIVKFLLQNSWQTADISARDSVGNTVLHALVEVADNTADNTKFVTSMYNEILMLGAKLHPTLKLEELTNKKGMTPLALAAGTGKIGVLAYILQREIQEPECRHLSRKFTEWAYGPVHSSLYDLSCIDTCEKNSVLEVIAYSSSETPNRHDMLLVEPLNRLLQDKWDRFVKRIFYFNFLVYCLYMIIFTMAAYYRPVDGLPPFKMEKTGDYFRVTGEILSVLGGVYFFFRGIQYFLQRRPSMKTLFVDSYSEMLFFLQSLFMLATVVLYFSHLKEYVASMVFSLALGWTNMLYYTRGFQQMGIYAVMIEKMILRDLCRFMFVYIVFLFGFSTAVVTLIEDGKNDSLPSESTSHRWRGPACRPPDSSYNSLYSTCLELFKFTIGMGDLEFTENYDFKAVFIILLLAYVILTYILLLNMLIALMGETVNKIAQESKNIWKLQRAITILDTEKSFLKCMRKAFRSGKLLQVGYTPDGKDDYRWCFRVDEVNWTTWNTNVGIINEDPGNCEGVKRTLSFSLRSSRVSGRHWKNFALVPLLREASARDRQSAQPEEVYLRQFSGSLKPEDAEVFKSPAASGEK
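TRPV1-expressing cells were cultured overnight at 35.5C and loaded with Fluo-8 calcium dye for 40 to 90 min at room temperature. After a 10 s baseline, compound was added and calcium influx was read kinetically for 3 min (ex 480/em 520 nm).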
gsp ag: agonists of gsp mutant (McCune-Albright syndrome). 340,000 compounds, 0.13% hits. Potency, µM (doses to about 76.9 µM), inactives show at the top dose activation (cAMP increase), actives largely listed as activators. gsp mutant cells, cAMP HTRF, 30 min; control for the full effect not named in the record; active = well fitted activation curve with a large enough effect; inconclusive = small, poorly fitted or top-dose-only effect, or another doubt; inactive = no such curve, though single readings can be large or run the other way; cell line not stated here;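 further: phosphodiesterase inhibitor Ro 20-1724 added with compounds to block cAMP breakdown; potency means the concentration at half of the fitted maximal effect; nearly all actives have a fitted effect of over 60% in size; about a fifth of the inactives were tested at one dose only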
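Cells stably selected in G418 were plated at 2000/well, grown 16-24 hr, then given compounds in DMSO with the PDE inhibitor […] (300 uM solution added) for 30 min at 37C; cAMP was read by HTRF.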
ClpP mod: qHTS Assay for Activators of ClpP; ATP-dependent Clp protease proteolytic subunit (Bacillus subtilis (strain 168)), P80244; purified B. subtilis ClpP, FRET peptide cleavage, 20 min; Potency, µM (titrated, usually from 57.5 µM), for inactives: at the highest dose activity change, negative = active; 340,000 compounds, 1.9% hits; AID 651965, 2013; active = well fitted falling curve with a large enough effect; inconclusive = small, poorly fitted or top-dose-only effect; inactive = no such curve, though single readings can be large or run the other way; further: potency means the concentration at half of the fitted maximal effect; the source files actives as falling curves though it sought activators and does not explain the sign; nearly all actives have a fitted effect of over 65% in size; many hits overshoot -100%
Target sequence (P80244 whole entry, looked up): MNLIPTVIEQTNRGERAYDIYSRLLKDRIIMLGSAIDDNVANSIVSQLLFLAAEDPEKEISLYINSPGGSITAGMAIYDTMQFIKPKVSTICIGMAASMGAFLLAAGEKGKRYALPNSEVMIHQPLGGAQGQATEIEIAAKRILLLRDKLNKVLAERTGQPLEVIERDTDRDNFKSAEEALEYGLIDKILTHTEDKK
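Purified B. subtilis ClpP, 10 microg/mL final in Tris/HCl pH8 with KCl, BSA, glycerol and Tween-20, cleaved an Abz/nitrotyrosine-quenched decapeptide. Fluorescence (ex 320, em 430) was read at 0 and 20 min at room temperature. Delta was normalized to 5.8 microM ADEP and DMSO/no-enzyme controls.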
CtBP-E1A inh: blocks the CtBP interaction with E1A. AlphaScreen GST-E1A/His-CtBP binding, 1536-well; hits give low values; control for the full effect not named in the record. activity change, % (concentration not given with the values). 340,000 compounds, 0.49% hits. AID 651724; in the data active means activity change below about -65%; inconclusive means about -30% to -65%; inactive means above about -30%; further: on the % scale 0 is the no-effect control and ±100 the full control effect
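Steps: dispense buffer (Tris pH 8.0, NaCl 300 mM, TCEP 1 mM, BSA, Tween 20); add 5X protein mix (GST-E1A, His-CtBP, 125 nM each); pin 23 nL compound; 2 h at 37 °C, dark; add 5X beads (50 ug/mL); 1 h; read.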
Sfp inh: inhibitors of Bacillus subtilis Sfp phosphopantetheinyl transferase; Q9F4F7; Potency, µM, inactives show max response, negative = inhibition, most hits filed as inhibitors; 310,000 compounds, 3.5% hits; Biochemical Sfp PPTase activity, qHTS; active means well fitted inhibition curve with a large enough effect; inconclusive means small, poorly fitted or top-dose-only effect, or another doubt; inactive means no such curve, though single readings can be large or run the other way;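 further: the enzyme is Sfp with the accession as filed and its product quenches rhodamine fluorescence; potency means the concentration at half of the fitted maximal effect; 0% = enzyme reaction without inhibitor and -100% = no enzyme wells; top concentration of the series not given in the record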
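Step 1, compound plus 15 nM Sfp-PPTase, 15 min, room temperature. Step 2, add rhodamine-CoA (5 uM) and BHQ-2-YbbR (12.5 uM). Step 3, read 525/598 nm fluorescence at 0 and 30 min.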
Menin MLL FP FL: menin-MLL binding inhibition, fluorescein peptide. Fluorescence polarization, fluorescein-MLL peptide displacement from menin. FP activity change, % at 61.4 µM. 290,000 tested, under 10 active; inconclusive = falling polarisation curve, or a change in total fluorescence; inactive = total fluorescence flat and polarisation flat or rising; no compound was filed as active; the % refers to the polarisation; negative = inhibition;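 further: % of control where 0% means no effect; inhibitors lower the polarisation; unlabelled MLL peptide was the positive control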
gsp antagonist: gsp mutant antagonism. Potency, µM (series often up to 76.9 µM), without a hit: at the top dose activity change, negative = inhibition, actives largely listed as inhibitors. 340,000 compounds, 0.4% hits. gsp-mutant cells, cAMP HTRF, 30 min; control for the full effect not named in the record; active = falling curve of any shape with a large fitted effect; inconclusive = falling curve, mostly with a smaller effect; inactive = flat or rising curve; cell line not stated here;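 further: intracellular cAMP measured with PDE inhibitor Ro 20-1724 present during compound exposure; potency means the concentration at half of the fitted maximal effect; on the % scale 0 is the no-effect control and ±100 the full control effect; nearly all actives have a fitted effect of over 65% in size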
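HTRF cAMP measurement after 30 min RT detection following 30 min, 37C compound treatment alongside […] (added as 300 uM solution) in G418-selected cells seeded at 2000/well and grown 16–24 h.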
* marks the source's active call; other numbers are inactive results; ? = inconclusive; . = not tested or not shown; [ ] = dose if it differs, or a comment.

SMILES	TRPV1 PAM	gsp ag	ClpP mod	CtBP-E1A inh	Sfp inh	Menin MLL FP FL	gsp antagonist
O=C(/C=C/c1ccc(F)cc1)NC(=S)Nc1ccccc1	-0.2	4.9%	.	-4.4	?	7.0	-1.5%
COc1ccc(C(=O)N2CCN(c3ncccn3)CC2)cc1[N+](=O)[O-]	3.0	-1.8%	-5.2%	.	5.8%	2.1	4.6%
COc1cc(C2=NOC(C(=O)Nc3cc(C)on3)C2)cc(OC)c1OC (stereo not given)	-10.0	0.2%	-0.9%	.	5.7%	0.9	1.4%
COc1cc2ccccc2cc1C(=O)Nc1ccc(Cl)cn1	-10.1	30.9%	?	.	-5.4%	-0.6	2.6%
O=C(COc1ccccc1[N+](=O)[O-])NCC1(N2CCCCC2)CCCCC1	-5.8	-28.6%	-1.1%	-0.1	.	.	6.9%
CCOc1ccc(CN(C(=O)c2cccs2)C2CCS(=O)(=O)C2)cc1 (stereo not given)	-11.0	-1.1%	-1.2%	1.6	-2.9%	1.6	-8.9%
CC(=O)NNc1cccc(Cl)n1	9.7	14.0%	-3.2%	2.3	4.2%	2.0	8.6%
O=C(/C=C/c1ccccc1)N/C(=C\c1ccco1)C(=O)NCCO	3.8	8.1%	-7.3%	-1.0	17.2%	4.3	1.4%
COc1ccc(S(=O)(=O)N(C)CC(=O)N2CCC(C)CC2)cc1Cl	-23.6	1.3%	0.0%	15.3	0.7%	-4.2	-6.5%
Nc1ccccc1-c1ccc(Cl)cc1	.	-18.5%[15.4 µM]	-1.2%	7.6	.	.	1.3%
CC(=O)c1cccc(NC(=O)Nc2ccc(C)cc2)c1	-5.2	?	-1.3%	-1.3	18.8%	2.9	3.7%
CCOC(=O)C1CCN(C(=O)c2ccc(OC3CCN(C(=O)COC)CC3)cc2)CC1	-0.6	-2.4%	-3.5%	-11.3	0.6%	-2.9	5.6%
Nc1c(O)ccc2c1C(=O)c1ccccc1C2=O	4.8	-4.0%	0.5%	?	-8.4%	-14.1	25.1µM*
CC1CCC(C(C)C)C2=C1C(C#N)(C#N)C(C#N)(C#N)C(c1ccccc1)N2 (stereo not given)	4.8	1.3%	-9.5%	-18.4	?	?	-2.3%
CC(C)C(NC(=O)c1ccccc1)c1nnc(SCC(=O)Nc2nccs2)n1C (stereo not given)	23.9	-0.8%	-0.5%	-23.1	8.8%	4.7	4.1%
Cc1ccc(C2=NN(S(C)(=O)=O)C(c3cccs3)C2)cc1 (stereo not given)	14.3	-14.2%	0.1%	-1.9	4.1%	1.3	-5.1%
CC(C)C[C@@H](CN(C)N=O)N(C[C@H](Cc1ccccc1)N(CCc1ccccc1)N=O)N=O	10.7	3.8%	0.7%	-4.5	2.6%	-1.2	-9.7%
O=C(O)Cn1cc(F)c(=O)[nH]c1=O	.	.	-0.1%	7.5	.	.	9.9%
CCn1c(CCNC(=O)c2ccc(OC)c(OC)c2)nc2ccccc21	6.0	13.9%	-2.9%	-2.1	0.9%	1.4	5.0%
O=C(CSc1nnc(Nc2ccccc2F)s1)NC1CCS(=O)(=O)C1 (stereo not given)	.	6.1%	-1.9%	.	.	.	-8.5%
CSc1ccccc1NC(=O)C(C)N(C)CC(=O)N1CCN(Cc2ccccc2)CC1 (stereo not given)	.	-16.4%	?	-1.4	.	.	5.4%
CC(OC(=O)c1ccc(Cl)cc1)C(=O)NCC1CCCCC1 (stereo not given)	-11.1	-31.9%[inhibitor]	0.4%	0.1	.	.	-1.4%
COc1nnc(-c2ccc(N3CCOCC3)c(NC(C)=O)c2)c2ccccc12	-0.6	-38.5%[inhibitor]	0.0%	-4.4	12.9%	4.4	5.2%
CC(=O)Nc1ccc(NC(=O)CSc2ncc(C(=O)Nc3ccccc3)c(=O)n2C)cc1	-5.5	24.1%	-4.0%	11.3	.	.	1.0%
CC1CCN(S(=O)(=O)c2cccc(C(=O)Nc3nccs3)c2)CC1	-6.1	?	0.5%	-20.1	20.5%	0.0	?
Cc1ccc(OC(=O)c2cccc(S(=O)(=O)N(C)C)c2)c(-n2nc3ccccc3n2)c1	8.9	0.6%	-5.6%	17.8	-0.7%	0.2	-4.3%
Cc1cc(C(=O)CSc2nnc(-c3ccc(Cl)cc3)n2C)c(C)n1CC1CCCO1 (stereo not given)	-1.3	6.4%	1.5%	-10.8	-1.5%	1.8	-7.7%
CSc1nc(-c2ccccc2)nc(NC(=O)C(C)C)c1C(C)=O	1.2	-4.7%	0.3%	.	7.4%	-1.1	0.3%
CCc1cc2cc(C(=O)N3CCN(c4ccccc4)CC3)sc2s1	-7.1	7.6%	-0.2%	-0.4	4.7%	1.6	-0.1%
CCc1ccc(S(=O)(=O)NCc2csc(C)n2)s1	-3.8	-1.1%	-0.3%	7.6	7.5%	-7.0	-0.4%
CCCCn1c(N)c(N(CC(C)C)C(=O)c2cc(Cl)nc3ccccc23)c(=O)[nH]c1=O	5.3	1.7%[15.4 µM]	-7.7%	5.0	.	.	13.8%
COC(=O)c1ccc(/C=N/NC(=O)C(=O)NCc2ccccc2)cc1	11.5	-4.9%[15.4 µM]	.	-22.8	-10.8%	4.8	1.0%
COCCN(CC(=O)Nc1ccccc1C(F)(F)F)C(=O)/C=C/c1cc(Cl)c2c(c1)OCCO2	.	-9.4%	?	-7.9	.	.	-11.8%
CCOc1ccc(-n2c(SCC(=O)O)nc3sc4c(c3c2=O)CCCC4)cc1	3.9	?	.	-10.8	6.1%	2.3	?
CC(C)N(C(=O)[C@H]1C[C@H](CC(=O)NCc2cccc(C(F)(F)F)c2)C(=O)N2CCc3c([nH]c4cc(-c5ccco5)ccc34)[C@]12C)C(C)C	.	.	3.5%	-11.6	.	.	-5.0%
O=C(Nc1cccc(OCC(=O)N2CCOCC2)c1)C1CCCCC1	-16.0	12.5%	-2.0%	-9.7	8.4%	0.9	1.5%
CCc1cc(=O)oc2c(CN3CCN(C)CC3)c(O)c(Cl)cc12	16.1	23.0%	-66.6%	3.3	3.2%	1.0	-9.5%
O=C(NCc1nnnn1-c1ccc(Cl)cc1)C(=O)c1c[nH]c2ccccc12	.	?	-0.6%	-5.4	.	.	.
Cc1ccc(/C=N\NC(=O)Cn2nnc3ccccc32)o1	4.6	-9.8%	4.7%	0.0	?	1.3	6.4%
COc1ccc(C)cc1-n1nnnc1SC(C)C(=O)NC1CCCC1 (stereo not given)	.	-26.0%	1.5%	.	.	.	-6.7%

3 compounds already listed, ordered by the value under Sfp inh, highest first:
SMILES	Sfp inh
CC1CCN(S(=O)(=O)c2cccc(C(=O)Nc3nccs3)c2)CC1	20.5%
O=C(Nc1cccc(OCC(=O)N2CCOCC2)c1)C1CCCCC1	8.4%
CSc1nc(-c2ccccc2)nc(NC(=O)C(C)C)c1C(C)=O	7.4%

(continued)
SMILES	TRPV1 PAM	gsp ag	ClpP mod	CtBP-E1A inh	Sfp inh	Menin MLL FP FL	gsp antagonist
N#Cc1cc2c(nc1SCc1ccncc1)CCC2	-6.2	10.6%	-5.8%	-3.8	50.1µM*	-0.2	4.8%
Nc1nc2n(n1)C(c1ccco1)CC(c1ccc(F)cc1)N2 (stereo not given)	.	14.0%	-1.1%	2.7	15.8%	-2.1	11.8%
O=S(=O)(/N=S1/CC=CCN1S(=O)(=O)c1ccccc1)c1ccccc1 (stereo not given)	-24.3	-1.0%	-1.5%	-0.1	1.41µM*	3.3	-10.7%
Cc1ccc(Nc2nnc(SCC(=O)Nc3ccc(S(=O)(=O)N4CCOCC4)cc3)s2)cc1	6.6	?	1.0%	-15.1	0.3%	-1.7	-12.7%
COc1cc(C2C3C(=O)N(Cc4ccccc4)C(=O)C3ON2c2ccccc2)cc(OC)c1O (stereo not given)	-10.2	1.6%	0.7%	-0.5	-8.7%	2.8	17.5%
CCc1ccccc1N1C(=O)c2cccc3c(N4CCOCC4)c([N+](=O)[O-])cc(c23)C1=O	-4.0	7.2%	-0.1%	-18.5	-8.4%	0.0	-20.0%
COc1ccccc1-n1c(-c2ccco2)n[nH]c1=S	1.8	-27.0%[15.4 µM]	.	5.9	-24.4%	-1.1	3.2%
O=C(NCCc1ccccn1)c1cccc(S(=O)(=O)N2CCc3ccccc32)c1	7.6	-6.3%[15.4 µM]	0.9%	13.2	-23.6%	1.9	0.6%
Cc1cccnc1NC(=O)Cn1nc(C)c([N+](=O)[O-])c1C	-6.6	-12.7%	0.1%	6.5	3.7%	1.5	-2.3%
O=C(NC(=S)Nc1ccc(Br)cc1)C1CCCCC1	2.9	0.7%	1.4%	2.9	2.1%	.	13.2%
S=C(NN=C(C1CC1)C1CC1)Nc1ccccc1	0.5	10.9%	-2.2%	-2.0	20µM*	0.5	9.0%
CCOc1ccccc1OCC(=O)OCC(=O)NNC(=O)c1ccc([N+](=O)[O-])cc1	6.3	-11.2%	0.3%	5.7	10.5%	0.0	2.3%
O=C(NCc1ccccc1CN1CCCC1)C1CCN(C(=O)c2ccc(Cl)cc2)CC1	.	-113.7%[inhibitor]	0.4%	2.2	.	.	.
Cc1c(Br)c(C(F)(F)F)nn1CC(=O)NCc1ccco1	8.8	-18.0%[15.4 µM]	.	10.1	16.8%	-3.2	0.7%
CC(C)[C@H](NC(=O)c1ccccc1)C(=O)OCC(=O)Nc1ccc(S(=O)(=O)N2CCOCC2)cc1	.	20.3%[15.4 µM]	0.6%	-1.2	.	.	-4.7%
CC(C)C[C@H](NC(=O)c1nc[nH]c1C(=O)NCc1ccc(CNC(=O)OC(C)(C)C)cc1)C(=O)OC(C)(C)C	-3.7	.	2.6%	-4.3	26.0%	2.3	-9.8%
COc1ccc(C(CNC(=O)CCNS(=O)(=O)c2ccc(Br)cc2)N2CCCC2)cc1 (stereo not given)	19.3	-6.2%	-6.1%	-1.7	.	.	-3.3%
C/C(Cc1nnn(-c2cc(C)on2)n1)=N\O	2.7	1.6%	.	-19.1	25.4%	-1.2	11.8%
COC(=O)C1=C(C(=O)OC)C(c2cc(Cl)ccc2O)c2sc(=O)[nH]c2S1 (stereo not given)	16.6	3.0%	1.3%	-20.4	79.4µM*	?	1.8%
Cc1ccc(S(=O)(=O)Cc2ccc(C(=O)O)o2)cc1	6.3	-4.4%	1.3%	31.2	-3.3%	2.9	3.9%
